# HPGD inh: qHTS Assay for Inhibitors of HPGD (15-Hydroxyprostaglandin Dehydrogenase). purified HPGD, NADH fluorescence kinetic, PGE2 substrate. 150,000 compounds, 4.3% hits. Potency, µM, for the others: at the top dose activity change, negative = inhibition, most hits filed as inhibitors. 15-hydroxyprostaglandin dehydrogenase [NAD(+)] (Homo sapiens), P15428; active = well fitted inhibition curve with a large enough effect (not every such curve was filed as active); inconclusive = small, poorly fitted or top-dose-only effect, or another doubt; inactive = no such curve, though single readings can be large or run the other way;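 further: top concentration of the series not given in the record; plate controls included wells without enzyme; inactives centre near -10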
# Target sequence (P15428 whole entry, looked up): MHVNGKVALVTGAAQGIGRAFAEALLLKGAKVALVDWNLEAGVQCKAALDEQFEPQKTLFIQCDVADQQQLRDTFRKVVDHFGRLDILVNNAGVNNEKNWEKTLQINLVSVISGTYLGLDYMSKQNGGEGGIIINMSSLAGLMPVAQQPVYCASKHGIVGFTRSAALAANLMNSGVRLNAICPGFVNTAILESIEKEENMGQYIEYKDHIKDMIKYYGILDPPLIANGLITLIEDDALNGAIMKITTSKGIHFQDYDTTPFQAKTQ
#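 20 nM HPGD preincubated 15 min at room temperature with compound in 50 mM Tris-HCl pH 8, 0.01% Tween 20. Started with 1 mM NAD+ and 30 uM prostaglandin E2; NADH fluorescence (360/450 nm) read 5 times over 30-s intervals, last minus first.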
# * = called active by the depositor; ? = inconclusive. On the % scale 0 is the no-effect control and ±100 the full control effect; potency means the concentration at half of the fitted maximal effect. Only part of the results is shown; count on the stated rates, not on these rows.
# Preview, seven compounds:
SMILES,HPGD inh
Cc1ccc[n+](C(C)C(=O)Nc2ccc(C)c([N+](=O)[O-])c2)c1 (configuration not stated),-10%
O=C(O)CSCC(=O)Nc1ccc(S(=O)(=O)N2CCCCC2)cc1,-7%
O=c1ccc2c(OCCCCc3ccccc3)c3ccoc3cc2o1,-13%
COc1ccc(NC(=O)N2CC[C@@]3(CCCNC3)C2)cc1,-4%
Cc1ccc2c(c1)N(C(=O)c1ccco1)C(C)(C)c1ssc(=S)c1-2,-23%
CCCCOCCCNC(=O)c1cccs1,-13%
CCn1c(SCc2nc(-c3ccc(OC)c(OC)c3)no2)nnc1-c1cccs1,-15%

# This part in full, from the first entry:
SMILES,HPGD inh
Cc1ccc[n+](C(C)C(=O)Nc2ccc(C)c([N+](=O)[O-])c2)c1 (configuration not stated),-10%
O=C(O)CSCC(=O)Nc1ccc(S(=O)(=O)N2CCCCC2)cc1,-7%
O=c1ccc2c(OCCCCc3ccccc3)c3ccoc3cc2o1,-13%
COc1ccc(NC(=O)N2CC[C@@]3(CCCNC3)C2)cc1,-4%
Cc1ccc2c(c1)N(C(=O)c1ccco1)C(C)(C)c1ssc(=S)c1-2,-23%
CCCCOCCCNC(=O)c1cccs1,-13%
CCn1c(SCc2nc(-c3ccc(OC)c(OC)c3)no2)nnc1-c1cccs1,-15%
O=S(Cc1cc(Sc2ccccc2)nc(-c2ccccc2)n1)c1ccccc1 (configuration not stated),-17%
Cc1nnsc1C(=O)Nc1cccc(Cl)c1Cl,-5%
CN1CCN(C(=O)c2c(O)c3cccc4c3n(c2=O)CC4)CC1,-13%
COc1ccccc1CN1C(=O)CCC1(C)C(=O)NCc1cccnc1 (configuration not stated),-7%
COc1ccccc1NC(=O)c1csc(-n2nc(C)cc2C(F)(F)F)n1,?
Cc1nc2ccc3[nH]snc3c2n1,-17%
O=C(CCn1nc(-c2ccccc2)ccc1=O)NCCCN1CCCCCC1,-10%
O=C(OCC1CCCN2CCCCC12)c1ccc2c(c1)OCO2 (configuration not stated),-7%
O=C(COc1ccc(-n2cnnn2)cc1)NCCc1ccc(F)cc1,-8%
CC(C)(C)N1CC2([N+](=O)[O-])CN(C(C)(C)C)CC([N+](=O)[O-])(C1)C2,-10%
Cn1c(-c2ccccc2)cnc1SCC(=O)N1CCCc2ccccc21,-13%
Cc1cccc2c1N(C(=O)c1ccco1)C(C)(C)c1ssc(=S)c1-2,-21%
Cc1ccc(-n2c(-c3ccccc3)cc(=O)nc2C)cc1,-5%
CN(C)/C=N/c1c(C#N)nnn1Cc1ccccc1,20µM*
COc1ccc(-n2c(=O)[nH]cc(C(=O)Nc3ccc(NC(C)=O)cc3)c2=O)cc1,-13%
Cc1ccc(S(=O)(=O)N2CCOCC2)cc1NC(=O)CSc1nnc2cc(C)c3ccccc3n12,-2%
CC(=O)Cc1nsc(NC(=O)c2cc(-c3ccc(Cl)c(Cl)c3)oc2C)n1,-15%
Cc1ccccc1Nc1nnc(SCC(=O)NC(=O)Nc2ccc3c(c2)OCCO3)s1,-7%
O=C(O)CCNC(=O)c1ccc(Br)o1,-12%
CCCC(c1nnnn1Cc1ccc(OC)cc1)N1CCN(c2ccccc2OC)CC1 (configuration not stated),-16%
COc1ccc2[nH]c(=O)c(CN(C)C(=O)c3ccncc3)cc2c1,?
Cc1ccccc1N(CC(=O)NC1CCCC1)C(=O)CS(=O)CC(=O)Nc1ccc2c(c1)OCO2 (configuration not stated),3%
O=C(CCN1CCN(C(c2ccccc2)c2ccccc2)CC1)N/N=C/c1ccc(O)cc1O,-7%
CCCn1c(SCC(=O)N2CCN(c3ccc(OC)cc3)CC2)nc2c1c(=O)n(C)c(=O)n2C,-6%
CC(=O)c1ccc(OC(=O)C2c3ccccc3Oc3ccccc32)cc1,-20%
C=CCNC(=O)C1(c2ccccc2)CC1(Cl)Cl (configuration not stated),-6%
COC(=O)c1ccc(C(NC(=O)OCc2ccccc2)/C(C)=C/[C@@H](C)C(=O)NCCN2CCOCC2)cc1 (some centres not stated),-7%
CC(=O)c1ccc(NCC(=O)N2CCN(c3ccccc3)CC2)cc1,-10%
O=C(CN1C(=O)CCS(=O)(=O)c2ccccc21)Nc1cccc(F)c1,-5%
O=C(CCC(=O)Nc1ccccc1)N/N=C/C=C/c1ccccc1,-17%
Cc1c(NC(=O)c2ccc(=O)oc2)c(=O)n(-c2ccccc2)n1C,?
N#Cc1cc2c(nc1SCc1ccccc1)CCCCC2,-8%
COCCNC(=O)Cc1cn(C)c2ccccc12,-5%
O=C(Nc1cccc(NC(=S)NC(=O)c2cccs2)c1)c1ccccc1,-10%
COc1cc2[nH]c(=O)n(CCCCCC(=O)NCCCN3CCC(C)CC3)c(=O)c2cc1OC,-17%
COC(=O)c1cc(S(=O)(=O)n2nc(C)c(Br)c2C)c(Cl)cc1Cl,-10%
C=CCN(Cc1cc(OC)ccc1OC)S(=O)(=O)N(C)C,-2%
CCN(CC)C(=O)c1cnn(-c2ccccc2)c1NC(=O)c1cccs1,-18%

# Individual results from the results shown:
# O=C(CN1C(=O)CCS(=O)(=O)c2ccccc21)Nc1cccc(F)c1 | HPGD inh = -5%
# C=CCN(Cc1cc(OC)ccc1OC)S(=O)(=O)N(C)C | HPGD inh = -2%
# COCCNC(=O)Cc1cn(C)c2ccccc12 | HPGD inh = -5%

# Next records:
SMILES,HPGD inh
CC1(CC(=O)N/N=C/c2cc(Br)c(O)cc2O)OCCO1,-24%
CCCOc1ccc(/C(O)=C2/C(=O)C(=O)N(CCOC)C2c2cccnc2)cc1 (configuration not stated),-23%
CC1=CC2=NC(=O)/C(=C\c3cccn3CCOc3cccc(C)c3)C(=N)N2O1,-7%
O=C(NCCN1CCCCC1)c1ccc(Cc2nc3ccccc3[nH]2)cc1,-6%
O=C(CN(Cc1ccco1)C(=O)CNS(=O)(=O)c1ccc(F)cc1)NCCc1ccccc1,-7%
N#C/C(=C\c1ccc(OC(=O)c2ccc(Cl)s2)cc1)c1nc2ccccc2[nH]1,-19%
CCCn1nnnc1NCc1cccn1C,-7%
CCNS(=O)(=O)c1ccc(NC(=O)c2cc(C(F)(F)F)nn2C)cc1,-31%
CC(C)Cc1nnc(NC(=O)CCN2C(=O)c3ccccc3C2=O)s1,-8%
CCOC(=O)c1nnn(-c2nonc2N)c1-c1cccs1,-4%
NC(=O)NCc1ccc(Cl)cc1,-3%
Cc1nc(NC(=O)CSc2nnc3ccccn23)c(Cl)cc1Cl,-3%
O=C1CC(c2ccccc2)C(=O)N1c1cccc(O)c1 (configuration not stated),-6%
CC(C)(C)NC(=O)NC(=O)COC(=O)CCCc1c[nH]c2ccccc12,-17%
N#Cc1c(NC(=O)Cn2nc(C(F)(F)F)c3c2CCCC3)sc2c1CCC2,8.9µM*

# With a hit mark in HPGD inh, among the entries above:
SMILES,HPGD inh
CN(C)/C=N/c1c(C#N)nnn1Cc1ccccc1,20µM*
N#Cc1c(NC(=O)Cn2nc(C(F)(F)F)c3c2CCCC3)sc2c1CCC2,8.9µM*

# (listing goes on)
SMILES,HPGD inh
Cc1ccc2cc(C3CC(c4ccco4)=NN3C(=O)CCC(=O)O)c(Cl)nc2c1 (configuration not stated),-12%
CC(C)Cn1c(N)c(C(=O)COC(=O)c2ccc3ccccc3n2)c(=O)n(C)c1=O,-10%
Cc1ccc(-n2nc(C)c(NC(=O)CCl)c2C)cc1,0%
CCCCN1C=CC(=C2N=c3cccc([N+](=O)[O-])c3=N2)C=C1,?
CCOC(=O)c1sc(C)c2c1NC1(CCCCC1)NC2=O,?
Cn1nc(C(C)(C)C)c([N+](=O)[O-])c1C(=O)Nc1ccccc1,-18%
COc1ccc(NC(=O)c2oc3ccccc3c2NC(=O)COc2ccccc2OC)c(OC)c1,?
CCCC1=C(C(=O)OCC)C(c2cccs2)C(C#N)=C(N)O1 (configuration not stated),-19%
CCOC(=O)c1ccc(-n2c(-c3ccco3)nc3ccccc3c2=O)cc1,-6%
CC(=O)Nc1c(O)nc(SCC(=O)N2CCN(c3ccc(F)cc3)CC2)[nH]c1=O,3%
CC(C)OC(=O)CSc1nc2cccnc2n1C1CCCCC1,-15%
Cc1cc(C)c2c(C)c(C(=O)Nc3c(C)n(C)n(-c4ccccc4)c3=O)oc2c1,-14%
Cc1noc(C)c1C(=O)NCCCc1ccccc1,-6%
CC1CC(C)(C)NC(=O)O1 (configuration not stated),-2%
O=S(=O)(NC1CCCC1)c1cccc(S(=O)(=O)N2CCC(n3nnc4ccccc43)CC2)c1,-13%

# Quoted at random: 2 records from the list
SMILES,HPGD inh
Cc1nnsc1C(=O)Nc1cccc(Cl)c1Cl,-5%
O=C(CCC(=O)Nc1ccccc1)N/N=C/C=C/c1ccccc1,-17%

# Remaining list, next part.
SMILES,HPGD inh
CCN1CCN(C(c2cccc(OC)c2)c2sc3nc(C)nn3c2O)CC1 (configuration not stated),-6%
CC(C)c1ccc(NC(=O)COc2ccc(F)cc2C(=O)c2cnn(-c3ccccc3)c2)cc1,?
Cn1c(-c2ccccc2)cc2c3no[n+]([O-])c3ccc21,-28%
O=C(c1ccccc1NS(=O)(=O)c1ccc(Cl)cc1)N1CCc2ccccc21,-14%
Cc1nc(Nc2ccccc2Cl)sc1C(=O)Nc1ccccc1,-14%
CCCCC(O)(CCCC)C(=O)NN(C(=O)OC)c1ccccc1,-8%
C=CCSC1=NC(N)=C(C#N)C2(CCCCC2)C1C(N)=O (configuration not stated),-10%
Cc1nc([N+](=O)[O-])c(Br)n1CC(=O)c1ccc(Cl)cc1,-9%
CCN1CCN(c2nc3c(C)cccn3c(=O)c2/C=C(\C#N)S(=O)(=O)c2ccc(C)cc2)CC1,?
c1ccc(-c2ccc(-c3cn4c(n3)CCC4)cc2)cc1,-29%
CCN(CC)C(=O)c1sc(NC(=O)c2ccco2)c(C#N)c1C,-19%
CCn1c(SCC(=O)c2ccc(O)c(O)c2)nnc1-c1ccccc1,-7%
CS(=O)(=O)c1ccc2nc(NC(=O)c3cccs3)sc2c1,-7%
CCOc1ccc(-c2nc(N)ncc2-c2ccccc2)c(O)c1,-7%
CCN(CC)S(=O)(=O)c1ccc2c(c1)nc(SCC(=O)N1CCOCC1)n2-c1ccccc1OC,-18%
CC(C)CCNC(=O)c1ccc2nc[nH]c2c1,-7%
N=c1c(C(=O)NCC2CCCO2)cc2c(=O)n3ccccc3nc2n1Cc1cccnc1 (configuration not stated),?
CCOc1ccc(C(=O)Nc2ccccc2N2CCOCC2)cc1,-5%
COC(=O)c1ccc(C(NC(=O)OCc2ccccc2)/C(I)=C/[C@@H](C)C(=O)NCC2CC2)cc1 (some centres not stated),14µM*
O=C(NCc1nnc2c3ccccc3c(-c3ccccc3)nn12)c1ccc(Cl)cc1,-6%
O=C(CSc1nc(-c2ccco2)cc(C(F)(F)F)n1)N1CCN(c2cccc(Cl)c2)CC1,-16%
COc1ccc(Oc2nnnn2-c2ccccc2)cc1,-7%
Cc1ccc(Cn2nc(C)c(NC(=O)c3cc(-c4ccc5c(c4)OCO5)on3)c2C)cc1,-10%
COc1cccc(NC(=O)c2ccccc2-c2nc(-c3ccccc3)no2)c1,-16%
CC(C)(C)NC(=O)CSc1nncn1NCc1c(Cl)cccc1Cl,-9%
C=CCOc1c(Cl)cc(C2NC(=O)NC(C)=C2C(=O)OC)cc1Cl (configuration not stated),-10%
O=C(NNc1cccc(Cl)n1)c1ccc(Cl)nc1,-7%
Cc1cccc(-n2ncc3c(NCCCN4CCCC4=O)ncnc32)c1,?
CN1C(=O)/C(=C/c2ccco2)SC1=Nc1ccc(N2CCOCC2)cc1,-4%
COc1cc(C(O)P(=O)(OC(C)C)c2ccc(N(C)C)cc2)cc(OC)c1OC (configuration not stated),-15%
CN(C)S(=O)(=O)c1ccc(NC(=O)Cn2c(-c3ccccc3)noc2=O)cc1,-19%
Cc1onc(-c2c(F)cccc2Cl)c1C(=O)Nc1cccc2nsnc12,?
COc1ccc(S(=O)(=O)Cc2ccc(C(=O)N3CCN(C4CCCCC4)CC3)o2)cc1,-9%
CCSC1=NC(C)(C)C=C(C)N1,-6%
CCOP(=O)(c1ccc(N(C)C)cc1)C(O)c1c(Cl)cccc1Cl (configuration not stated),-3%
COc1cc(NC(=O)c2ccco2)c(OC)cc1NC(=O)c1cc(OC)c(OC)c(OC)c1,-20%
CCN1C(=O)C(CC(=O)Nc2c(C)cccc2C)SC1=Nc1ccc(S(N)(=O)=O)cc1 (configuration not stated),-6%
CC(C)C(NS(=O)(=O)c1cccs1)C(=O)NCc1ccc2c(c1)OCO2 (configuration not stated),-11%
COC(=O)c1c(NC(=O)CSc2n[nH]c(N)n2)sc(C)c1C,-4%
O=c1c2ccccc2nnn1CSc1ccccc1F,-4%
Cc1ccc(CC2(O)CC(C)N(C)CC2C)c(C)c1 (configuration not stated),-4%
COC(=O)CC1C(C)(C)C2(O)OC34CC2C(=O)[C@@]1(C)C3CC[C@]1(C)C4=CC(=O)OC1c1ccoc1 (some centres not stated),?
CCCCCCCC1CC(/C(C)=N/NC(N)=O)OC1=O (configuration not stated),-10%
O=C(Nc1cccc(C(=O)N2CCN(Cc3ccccc3)CC2)c1)c1ccccc1,-12%
O=C(CSc1ccc2c(c1)OCCO2)NC(=O)Cc1ccccc1,-8%
COC(=O)c1ccc2c(=O)n(CCCCCC(=O)NCc3ccc4c(c3)OCO4)c(=O)[nH]c2c1,?
Cc1ccc(C(=O)NCCSC2CCCCC2)cc1S(=O)(=O)Nc1ccccc1,-18%
